Sfp PPTase inh = blocks B. subtilis Sfp PPTase activity; Q9F4F7; Biochemical Sfp PPTase activity, qHTS; Potency, µM, inactives show max response, negative = inhibition, actives largely listed as inhibitors; 310,000 tested, 3.5% active; active = well fitted inhibition curve with a large enough effect; inconclusive = small, poorly fitted or top-dose-only effect, or another doubt; inactive = no such curve, though single readings can be large or run the other way;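 note: the enzyme is Sfp with the accession as filed and its product quenches rhodamine fluorescence; potency is the fitted concentration of half-maximal effect; 0% = enzyme reaction without inhibitor and -100% = no enzyme wells; top concentration of the series not given in the record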
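Fluorescence-quenching assay with 15 nM Sfp, 5 uM rhodamine-CoA and 12.5 uM BHQ-2-labelled ybbR peptide in pH 7.6 Hepes/MgCl2 buffer. Enzyme was pre-incubated with compound for 15 min at room temperature. Rate was taken from the 30-min fluorescence change (525/598 nm).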
D2 potentiator = human D2 receptor positive allosteric modulation; DiscoveRx D2 beta-arrestin cells, luminescence, 90 min; 100% = 57 uM dopamine signal; potentiation, % (concentration not given with the values); 360,000 tested, 0.23% active; AID 624464; active = potentiation of 50% or more; inconclusive = 30% to 50%; inactive = 30% or less;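 note: compound concentration not given in the record; tested on top of an EC20 dose of dopamine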
Target sequence (P14416 whole entry, looked up): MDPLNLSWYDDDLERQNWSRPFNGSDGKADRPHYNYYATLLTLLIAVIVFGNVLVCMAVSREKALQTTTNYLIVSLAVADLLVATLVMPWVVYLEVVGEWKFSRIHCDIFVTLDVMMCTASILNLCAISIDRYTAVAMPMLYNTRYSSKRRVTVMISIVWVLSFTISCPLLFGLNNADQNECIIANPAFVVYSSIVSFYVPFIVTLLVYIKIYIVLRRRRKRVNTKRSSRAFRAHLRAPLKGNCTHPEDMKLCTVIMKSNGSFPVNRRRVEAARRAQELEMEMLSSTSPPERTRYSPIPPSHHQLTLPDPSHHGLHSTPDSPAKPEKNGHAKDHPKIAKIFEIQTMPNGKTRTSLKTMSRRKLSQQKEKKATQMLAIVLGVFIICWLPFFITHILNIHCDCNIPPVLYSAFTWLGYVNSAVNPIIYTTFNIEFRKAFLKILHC
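D2 cells co-treated with compound plus 50 nM dopamine (EC20) for 90 min at 37 deg C to detect potentiation. Beta-arrestin recruitment was read as enzyme-fragment luminescence after 1 h at ambient temperature. Full response was set by 57 uM dopamine.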
D2 agonist = human D2 receptor agonism in beta-arrestin assay; P14416; 360,000 tested, 0.084% active; AID 624465; DiscoveRx PathHunter D2 beta-arrestin, luminescence, 90 min; 100% = 57 uM dopamine signal; activation, % (no concentration beside the values); in the data active = activation above about 40%; inconclusive = about 15% to 40%; inactive = below about 15%; note: compound concentration not given in the record; the text of the record calls up to 30% inactive
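DiscoveRx PathHunter D2 beta-arrestin cells (2,100/well) attached overnight, then compound-stimulated 90 min at 37 C in HBSS/10 mM HEPES/0.1% Tween-20 buffer; beta-galactosidase complementation read by luminescence after 1 h at ambient temperature. Dopamine 57 uM final (EC100) as control.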
TRPV1 PAM = human TRPV1 potentiation. TRPV1-expressing cells, Fluo-8 calcium influx, capsaicin EC20 potentiation; host cell line not named in the record; control for the full effect not named in the record. AID 540277. potentiation, % at 8.33 µM. 320,000 tested, 0.02% active; active means potentiation above 80%; inconclusive means 30% to 80%; inactive means below 30%; note: 0% is about no effect
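Fluo-8 calcium influx in TRPV1-expressing cells, kinetic read (ex 480/em 520 nm). Compound added and read 3 min for agonist activity, followed by capsaicin at EC20 final and 2 min further read for enhancement.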
PINK1 modulator = changes PINK1 expression; Potency, µM (highest dose often 76.6 µM), without a hit: at the highest dose activation (PINK1 increase), usual class: activators; PINK1 immunofluorescence, high-content cytometry, 24 h; AID 624263; 410,000 tested, 0.2% active; active = well fitted activation curve with a large enough effect; inconclusive = small, poorly fitted or top-dose-only effect; inactive = flat fitted curve, though single readings scatter; cell line not stated here;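 note: potency is the fitted concentration of half-maximal effect; % of control where 0% means no effect; nearly all actives have a fitted effect of over 65% in size; a mitochondrial uncoupler was the plate control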
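Stable cell line treated 24 h with compounds at 5 concentrations (CCCP controls), then fixed and immunostained for PINK1 plus nuclear and cell stains; PINK1 immunofluorescence quantified by laser-scanning microplate cytometry.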
Six1-Eya2 inh = blocks human Six1 binding to Eya2. Q15475+O00167. activity change, % (test concentration not listed). AlphaScreen GST-Six1/His-Eya2 binding, biochemical; hits give low values; control for the full effect not named in the record. 360,000 tested, 0.56% active. AID 651725; in the data active = activity change below about -65%; inconclusive = about -30% to -65%; inactive = above about -30%; note: % is set by controls: 0 for no effect and ±100 for the full control effect; compound concentration not given in the record
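GST-Six1 + His-Eya2 (5X stock: 250/500 nM); Tris pH 8.0, 300 mM NaCl, 0.05% BSA, 0.02% Tween 20; GSH donor/Ni acceptor beads; 1 h 37 °C dark; AlphaScreen readout.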
CtBP-E1A blk = blocks the CtBP interaction with E1A; AID 651724; AlphaScreen GST-E1A/His-CtBP binding, 1536-well; hits give low values; control for the full effect not named in the record; 340,000 tested, 0.49% active; activity change, % (no concentration beside the values); in the data active means activity change below about -65%; inconclusive means about -30% to -65%; inactive means above about -30%; note: % is set by controls: 0 for no effect and ±100 for the full control effect; compound concentration not given in the record
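AlphaScreen with 125 nM GST-E1A and 125 nM His-CtBP (5X stocks) in Tris pH 8.0, 300 mM NaCl, BSA, Tween 20, TCEP. Compounds preincubated 2 h at 37 deg C, then glutathione donor/nickel acceptor beads added for 1 h at 37 deg C in dark.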
* hit, by the source's call; ? = inconclusive; / = not tested or not shown; & = joins results of further samples; [ ] = another dose, or the depositor's remark.

SMILES | Sfp PPTase inh | D2 potentiator | D2 agonist | TRPV1 PAM | PINK1 modulator | Six1-Eya2 inh | CtBP-E1A blk
CCCC(O)(CCN(C)C)c1ccc(OC)cc1 (stereo not given) | 12% | -10 | -1.2 | -1 | 1.9% | 9 | 0
COc1cccc2cc3c(=O)n(-c4ccccc4)nc-3oc12 | 1% | -6 | -1.6 | 1 | 0.3% | -4 | -1
COc1cc(C(=O)N(Cc2ccc(F)cc2)C2CCS(=O)(=O)C2)cc(OC)c1OC (stereo not given) | 7% | 4 | 1.2 | 3 | -0.9% | 7 | -2
CCOC(=O)CCCCCC(=O)Nc1ccc2c(c1)CC(=O)N([C@H](C)CO)C[C@H](C)[C@H](CN(C)S(=O)(=O)c1ccc(OC)cc1)O2 | / | -6 | -2.1 | / | 3.4% | -5 | 2
O=C(COC(=O)C1=COCCO1)Nc1cccc(S(=O)(=O)N2CCOCC2)c1 | 22% | -5 | -2.2 | 0 | 1.9% | -1 | 1
O=C1NC(=O)C(c2ccccc2)(c2ccccc2)N1 | -15%&10%&7%&-6%&8%&16% | 2&-10 | 0.1&-5.2 | 8&-8&-6 | 0.9%&2.0% | 24&-6 | 1&-1
O=C(NCc1cccc(CNC(=O)Nc2cccc(O)c2)c1)Nc1cccc(O)c1 | 4% | -2 | 1.9 | 28 | -0.8% | 5 | /
Cc1ccc(-n2nc3c(c2NC(=O)c2ccc4c(c2)OCO4)CS(=O)(=O)C3)cc1C | 8% | 2 | -1.0 | -7 | -0.1% | 2 | -13
COc1ccccc1CN1CC(C(=O)NCC2CCCO2)CC1=O (stereo not given) | 23% | -12 | -1.4 | 5 | / | 4 | 7
Cc1ccc(OCCSc2ncnc3nc[nH]c23)cc1 | -10% | -1 | 2.1 | 1 | 1.2% | -2 | 0
COc1ccccc1CNS(=O)(=O)c1cc2c3c(c1)CCN3C(=O)CC2 | / | ? | 0.3 | 2 | -0.6%&1.5% | 10 | -6
COc1ccc(C(C)=O)cc1CC(=O)Nc1cccc(S(=O)(=O)N2CCOCC2)c1 | / | -1 | -2.4 | -23 | -0.5% | -1 | -12
Cc1ccc(NC(=O)c2ccc3c(c2)OCCO3)cc1C | 7% | -10 | -2.0 | -30 | -0.4% | -4 | 2
C=CCN1C(=O)c2ccc(C(=O)N(C)CC(=O)Nc3ccc(Br)cc3C)cc2C1=O | / | -3 | -3.5 | -10 | 3.5% | 4 | 1
CCOc1ccc(S(=O)(=O)Nc2cccc(C(=O)NCC3CCCO3)c2)cc1 (stereo not given) | / | -6 | -2.5 | 13 | 6.3% | 5 | -1
O=c1c2ccccc2c(C=NCCO)c(O)n1-c1ccccc1 | 5% | -1 | -4.2 | 3 | -0.6% | 1 | 2
Cc1ccc(S(=O)(=O)NCCC(=O)N2CC(C)OC(C)C2)cc1 (stereo not given) | / | -2 | -5.9 | 2 | -1.6% | 4 | 3
CN(CC(=O)Nc1cccc(F)c1)CC(=O)Nc1cccc2ccccc12 | / | 3 | ? | / | 3.6% | 0 | 0
COc1ccc(C2(C(=O)NC(C)C)CCCC2)cc1OC | -5% | 1 | -2.4 | 1 | 5.6%[38.3 µM] | 3 | 0
NC(=S)N/N=C/c1ccccc1OCCSc1ccc(Cl)cc1 | -12% | -3 | -5.0 | -1 | 4.6% | -16 | -6
Cc1ccc(-c2ccnc3c(Cl)c(C)nn23)cc1 | ? | 2 | -2.4 | -1 | 4.8% | 2 | 16
O=C(N/N=C/c1cccs1)C1COc2ccccc2O1 (stereo not given) | 1% | -13 | 0.9 | -23 | 14%[38.3 µM] | -5 | -3
COc1ccc(N2C(=O)C(F)(F)C2c2ccc(C)cc2)cc1OC (stereo not given) | 7% | 6 | 2.0 | 7 | -1.2% | 1 | 10
O=C(NN1CCOCC1)c1ccc(F)cc1 | 8% | -9 | -1.5 | 8 | 0.3% | 8 | 2
COCC(=O)Nc1ccc(OCc2ccccc2)cc1 | 4% | 5 | 1.2 | 2 | 0.2% | -3 | -4
Cc1cccc(-n2nnc(C(=O)NCc3ccccn3)c2N)c1 | -2% | -7 | 0.9 | 9 | -0.3% | 3 | 7
COc1ccc(Cl)cc1NC(=O)CN(C)C(=O)COc1ccccc1F | 4% | 17 | -3.9 | -33 | 0.7% | -10 | /
N#C/C(=N\Nc1cccc(F)c1)C(=N)N1CCCCCC1 | 13% | -13 | -4.1 | -7 | 0.4% | -2 | -6
O=C(NCC1CCCO1)c1nc2c(nnn2Cc2ccccc2Cl)c(=O)[nH]1 (stereo not given) | -23% | 0 | -3.4 | 5 | 2.1%[38.3 µM] | 1 | 8
COc1cccc(C(=O)Nc2cc(S(=O)(=O)N3CCOCC3)ccc2N2CCOCC2)c1 | / | -1 | 4.6 | / | -0.2% | 1 | -4

Some of these compounds in order of their number in Sfp PPTase inh, lowest first.
SMILES	Sfp PPTase inh
O=C(NCC1CCCO1)c1nc2c(nnn2Cc2ccccc2Cl)c(=O)[nH]1 (stereo not given)	-23%
COc1ccc(C2(C(=O)NC(C)C)CCCC2)cc1OC	-5%
O=c1c2ccccc2c(C=NCCO)c(O)n1-c1ccccc1	5%

Next part
SMILES | Sfp PPTase inh | D2 potentiator | D2 agonist | TRPV1 PAM | PINK1 modulator | Six1-Eya2 inh | CtBP-E1A blk
COc1ccccc1-c1ccc(SCC(=O)NCCc2ccccc2)nn1 | 6% | -7 | -0.8 | 3 | 2.3% | -16 | -17
O=C(Nc1ccc(N2CCN(C(=O)c3ccccc3)CC2)c(Cl)c1)c1ncn[nH]1 | -5% | -1 | 2.6 | 24 | 1.3% | -6 | 0
COc1ccc(NS(=O)(=O)c2ccc(NC(=O)c3ccc(Br)cc3)cc2)nn1 | 14% | -9 | 3.2 | 2 | -1.3% | 1 | /
Cc1ccc(NC(=O)C2CCC(=O)N2C(=O)OCc2ccccc2)cc1 (stereo not given) | -50% | -4 | -1.9 | 0 | 1.7% | 0 | -13
CCOC(=O)CC1OC(=O)c2cc3c(cc21)C(=O)OC3CC(=O)OCC (stereo not given) | 16% | -15 | -4.4 | -14 | 0.7% | 4 | 14
Cc1nc(NC(=O)CCCC(=O)Nc2nc(C)c(C)s2)sc1C | 9% | -4 | 2.9 | -11 | -7.1%[38.3 µM] | 5 | 0
O=C(COC(=O)/C=C/c1ccc(OC(F)F)cc1)NC1CCCC1 | / | -16 | -3.1 | 4 | -0.2% | 7 | 3
CCC(=O)NC(=S)Nc1ccc(NC(=O)c2ccc([N+](=O)[O-])cc2Cl)cc1 | 7% | 10 | 7.2 | 13 | 2.1% | -1 | 6
CCOCCCNC(=O)CN1CCN(Cc2ccc(Cl)cc2)C1=O | 11% | -7 | -1.6 | -2 | -0.7% | 7 | 6
COc1ccc(C2C(=O)c3ccccc3C2=O)cc1OC | 0% | 0 | 3.6 | -14 | 5.6% | -8 | -2
CC1CCCCN1CCCNC(=O)c1ccc2c(c1)NC(=O)CN2C (stereo not given) | / | -27 | -1.6 | / | 5.3% | -1 | 5
CCC(C)N1CCN(C(=O)C2CCN(S(=O)(=O)c3c(C)noc3/C=C/c3ccco3)CC2)CC1 (stereo not given) | -5% | -10 | 4.5 | -11 | -1.1% | -2 | -24
O=C(O)c1cccc(S(=O)(=O)N2CCCC(c3nc4c(nnn4Cc4ccccc4Cl)c(=O)[nH]3)C2)c1 (stereo not given) | 13% | -3 | -0.3 | -6 | -1.9% | -4 | -4
Cc1nn(Cc2cccc(C(=O)Nc3ccn(Cc4ccccc4)n3)c2)c(C)c1[N+](=O)[O-] | ? | -9 | 1.3 | -1 | 13% | 1 | -11
CCCCn1c(-c2cccs2)nc2oc3ccccc3c(=O)c2c1=O | 2% | -4 | 0.3 | -7 | 4.2% | 17 | 0
Cc1ccccc1NC(=O)CSc1nnc(-c2ccco2)n1N | / | -2 | 3.1 | -10 | 1.1% | 5 | 0
O=C(COc1ccc(Cl)cc1)Nc1nc(-c2cccs2)cs1 | ? | -9 | -0.4 | 3 | 13% | -2 | 3
Cn1nccc1C(=O)N1CCCC(Nc2ccc(F)cc2)C1 (stereo not given) | 6% | -4 | 2.6 | -1 | 0.8% | 3 | -9
CCCn1c(SCC(=O)NC(C)c2ccccc2)n[nH]c1=O (stereo not given) | 12% | -1 | -2.6 | 1 | 0.7% | 2 | 0
Cc1nn(-c2cc(C(F)(F)F)ccc2Cl)c2nc(C(Cl)(Cl)Cl)[nH]c(=O)c12 | 17% | -1 | 0.5 | 12 | 0.3% | 1 | 3
Cc1ccc(NC(=O)C2CCCC2)c(Br)c1 | / | 0 | 3.2 | / | 1.1% | 1 | -9
C=CCN(CC=C)S(=O)(=O)c1ccc(NC(=S)NC(=O)/C=C/c2ccc(C)cc2)cc1 | 9% | 3 | 1.6 | 20 | 6.8% | 4 | -4
CCOc1cc(N2CCOCC2)c(OCC)cc1NC(=O)Cc1ccccc1OC | -13% | -1 | 0.7 | -14 | ? | -20 | -4
CSCc1cc(N(C)c2ccccc2)nc(-c2ccccc2)n1 | -13% | -2 | -6.7 | 8 | 7.8% | -8 | /
COc1ccc2c(=O)c(N3C(=O)c4ccccc4C3=O)coc2c1 | 9% | -16 | -2.2 | -15 | 1.8%[38.3 µM] | -2 | -2
N#CCCN(C(=O)c1cc2c(s1)-c1ccccc1S(=O)(=O)C2)c1ccccc1 | 1% | -15 | 1.4 | 2 | -1.9% | 7 | -11
COc1ccccc1NC(=O)c1cc(Cl)nnc1Cl | 3% | -1 | 9.3 | 3 | -0.5% | 1 | -13
COc1ccccc1N1CCN(C(=O)c2ccc(CS(=O)(=O)c3ccccc3OC)o2)CC1 | -13% | -21 | 2.0 | -27 | 1.2% | 0 | -16
CCOC(=O)c1c(/N=C/c2cccc([N+](=O)[O-])c2O)sc2c1CCC2 | 18µM* | -14 | -10 | 7 | 2.3% | -5 | -12
COc1cc(C2Nc3cccc4cccc(c34)N2)ccc1O | 45µM* | -6 | 8.7 | -3 | 8.8% | -29 | -4
CCOc1ccc(C(=O)NC(C(=O)NCCc2ccc(S(N)(=O)=O)cc2)C(C)C)cc1 (stereo not given) | 10% | -2 | 1.6 | -11 | -0.3% | -5 | 5
O=C(Nc1ccc(S(=O)(=O)Nc2ncccn2)cc1)c1ccc(S(=O)(=O)N2CCCC2)cc1 | 13% | -4 | -3.7 | 24 | -0.9% | 9 | -16

Source: PubChem BioAssay

Hits appear at their usual frequency; overall some 3.7% were active at least once.
